YopH inh = YopH (Yersinia) phosphatase inhibition | fluorescence Ex485/Em525 | inhibition, %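 (about 10 µM by stock and volumes)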 | 140,000 tested, 0.16% active | AID 898;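 active = inhibition of 50% or more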;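 note: controls were vehicle for no effect and minimum signal wells for full effect; inactives centre near -20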
Arbovirus anti = blocks arbovirus infection | arbovirus infection cell-based antiviral screen | inhibition, % at 10 µM | 200,000 tested, 0.37% active;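 active = inhibition from about 30%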;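 note: bluetongue infection of BSR cells; cell survival read as ATP light after 72 h; 0% = infected wells without compound and 100% = uninfected wells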
Mtb H37Rv = M. tuberculosis H37Rv growth inhibitors, H37Rv strain (AID 1626); M. tuberculosis H37Rv growth inhibition; higher % means a stronger effect; one-dose inhibition, % at 10 µM; IC50 in µM for titrated hits; 220,000 tested, 0.95% active;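 active = confirmed in a dose series; inconclusive = inhibition above 80% but not taken into the dose series; inactive = below 80% or under 30% at every dose of the series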;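 note: bacteria incubated seven days before Alamar blue readout; 0% = bacteria only wells and 100% = bacteria with antibiotic wells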
Mtb betalactam = beta-lactam sensitization of Mtb H37Rv; inhibition, % at 25 µM; 330,000 tested, 0.27% active; M. tuberculosis H37Rv growth with meropenem, percent inhibition; hits of this screen are not shown here;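 active = about 74% or more and at least 40 points above the plate without the antibiotic, then above 30% in a dose series; inconclusive = first-round hits that could not be retested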;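 note: growth measured after seven days incubation then overnight dye step; 0% = bacteria only wells and 100% = bacteria with antibiotic; twin plates without the antibiotic show which effects depend on it; some results filed as inactive read as strong as hits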
RecA intein inh = blocks M. tuberculosis RecA intein splicing | P9WHJ3 | cell-free RecA intein splicing, fluorescence | inhibition, %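 (about 9 µM by stock and volumes)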 | 290,000 tested, 0.75% active; in the data active = inhibition above about 30%; inconclusive = no clear call, values can overlap the other calls;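 note: 0% = vehicle wells and 100% = reference inhibitor control wells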
Target sequence (P9WHJ3 whole entry, looked up): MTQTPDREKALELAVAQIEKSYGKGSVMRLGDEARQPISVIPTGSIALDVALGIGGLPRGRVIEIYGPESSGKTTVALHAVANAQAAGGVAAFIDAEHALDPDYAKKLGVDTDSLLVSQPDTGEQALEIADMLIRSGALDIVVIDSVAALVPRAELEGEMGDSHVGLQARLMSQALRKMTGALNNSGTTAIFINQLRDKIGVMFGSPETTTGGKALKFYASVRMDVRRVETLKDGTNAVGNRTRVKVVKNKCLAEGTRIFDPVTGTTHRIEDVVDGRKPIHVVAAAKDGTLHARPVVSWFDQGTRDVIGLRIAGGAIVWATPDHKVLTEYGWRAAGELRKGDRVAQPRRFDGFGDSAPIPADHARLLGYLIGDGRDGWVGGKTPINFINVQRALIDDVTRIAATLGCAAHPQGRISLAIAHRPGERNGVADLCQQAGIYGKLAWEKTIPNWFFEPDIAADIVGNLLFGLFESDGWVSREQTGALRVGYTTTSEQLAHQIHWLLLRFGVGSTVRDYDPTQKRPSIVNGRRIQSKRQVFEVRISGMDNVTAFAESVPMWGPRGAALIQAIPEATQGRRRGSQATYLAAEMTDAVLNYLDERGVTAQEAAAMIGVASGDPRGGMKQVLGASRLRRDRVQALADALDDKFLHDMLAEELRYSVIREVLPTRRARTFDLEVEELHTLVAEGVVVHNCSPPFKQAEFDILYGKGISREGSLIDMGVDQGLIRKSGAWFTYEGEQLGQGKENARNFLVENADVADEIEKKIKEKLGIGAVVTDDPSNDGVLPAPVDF
Arbovirus anti repeat = second read-out of Arbovirus anti, no call of its own (marks repeat the call); inhibition, %; measured here: 10K subset replicate screen; many hits read low in the repeat;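 first of two repeat runs on a subset; 0% = infected and 100% = uninfected wells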
An asterisk follows results filed as active; ? = inconclusive; / = no result given. Only part of the results is shown; rates above refer to the full screens.

SMILES | YopH inh | Arbovirus anti | Mtb H37Rv | Mtb betalactam | RecA intein inh | others
O=C(N/N=C/c1cccc(Oc2ccccc2)c1)c1cccc(O)c1 | / | / | / | 6 | 3.9
O=C(Cn1c2ccccc2c(=O)c2ccccc21)Nc1cccc(F)c1 | -34 | 4 | -12% | -1 | /
OC(COc1ccc2ccccc2c1Cl)CN1CCOCC1 (centres undefined) | -53 | 2 | 5% | -2 | /
Cc1c([N+](=O)[O-])c(C(=O)Nc2ccc3c(c2)OCCO3)nn1C | -2 | 5 | -11% | -4 | -1.8
CC(C)CN1C(=O)c2ccc(NC(=O)c3ccco3)cc2C1=O | / | 1 | -12% | -6 | -2.2
CCC(C)N1CC(=O)N2C(c3ccc(OC)cc3OC)c3[nH]c4ccccc4c3C[C@H]2C1=O (some centres undefined) | / | / | / | ? | 1.1
CCN(CC)CC(O)COc1ccc2c(c1)OCO2 (centres undefined) | -42 | -2 | -1% | -2 | -6.1
COc1ccc2c(c1OC)C(=O)N1C2SC(C)(C)[C@H]1C(=O)NC(C)C (some centres undefined) | / | / | / | -8 | -0.3
O=C(Nc1ccc(S(=O)(=O)N2CCc3ccccc3C2)cc1)C1CCCO1 (centres undefined) | -22 | 2 | 2% | 5 | 0.1
O=C(NCCOc1ccc(Cl)cc1)c1ccco1 | / | / | / | 3 | 1.9
CN(CC(N)=O)S(=O)(=O)c1ccc(F)cc1 | -27 | -2 | -4% | -3 | -1.7
Cc1ccc(S(=O)(=O)CC(=O)c2ccccc2)cc1 | -33 | 6 | / | 0 | -2.5
COC(=O)c1ccc(NC(=O)[C@H](C)NC(N)=O)cc1 | / | / | -10% | -7 | -1.5
O=C(C1CCC(C(=O)N2CCc3ccccc32)CC1)N1CCc2ccccc21 (centres undefined) | 4 | 0 | -5% | 0 | -0.8
CCC(C(=O)Nc1cc(OC)c(NC(=O)c2ccccc2)cc1OC)c1ccccc1 (centres undefined) | / | / | / | 1 | -2.0
CCC(CC)c1nnc(NC(=O)C2CCN(C(=O)c3ccco3)CC2)s1 | / | / | / | -4 | 0.2
CCCCC(=O)NC1(C(F)(F)F)C(=O)Nc2c1c(=O)[nH]c(=O)n2Cc1ccco1 (centres undefined) | -23 | 7 | 5% | -3 | -0.2
Cc1cc(/C=C(/C#N)c2nc3ccccc3[nH]2)c(C)n1-c1cc(C(=O)O)cc(C(=O)O)c1 | / | -4 | -9% | / | -5.5
Cc1ccc(-n2c(C)cc(/C=C3\SC(=O)NC3=O)c2C)cc1 | / | / | / | 1 | -0.6
Cc1cccc(NP(=O)(Oc2ccccc2F)Oc2ccccc2F)c1 | -32 | -29 | 14% | 9 | 13
Cc1ccc(C(C)NC(=O)c2ccc3c(c2)OCO3)cc1C (centres undefined) | / | / | / | -10 | 1.4
CC(NC(=O)c1cc(Br)cs1)C1CCCO1 (centres undefined) | / | / | / | 3 | 4.3
Cc1ccc(-c2nc(-c3ccncc3)no2)c(Cl)c1 | / | / | / | 4 | -6.4
Cc1ccc(NC(=O)CSc2ccc(-c3ccccn3)nn2)c(C)c1 | / | / | / | -3 | -0.6
CCOc1cc(S(=O)(=O)NCC2OCCc3ccccc32)c(OCC)cc1-n1cnnn1 (centres undefined) | -16 | 11 | 20% | -8 | -0.1
Next part
SMILES | YopH inh | Arbovirus anti | Mtb H37Rv | Mtb betalactam | RecA intein inh | others
Cc1ccc(NC(=O)N(Cc2cccs2)Cc2cc3cc4c(cc3[nH]c2=O)OCO4)cc1 | -37 | -8 | -10% | -2 | -1.5
O=C(Nc1ccc2nc(-c3cccs3)[nH]c2c1)c1ccco1 | -1 | -11 | -2% | -13 | 5.0
CC1CCCCN1C(=O)COC(=O)c1cc([N+](=O)[O-])ccc1N1CCOCC1 (centres undefined) | / | / | / | -10 | -2.1
CCOC(=O)c1nn(-c2cccc(OC)c2)c2nc(CC)c(C#N)c(=O)n12 | -13 | 2 | 0% | -1 | 0.6
COc1cc(/C=C/C(=O)OCC(=O)NC(=O)NC23CC4CC(CC(C4)C2)C3)ccc1OCC#N | -20 | 1 | 8.4µM* | 94 | 4.1
Cc1ccc(C(=O)NC(=S)Nc2ccc(Oc3ccc(Cl)cc3)cc2)cc1 | -22 | 19 | 79% | 28 | -1.7
CC(=O)c1cccc(NC(=O)N2CCCC(C(=O)c3cc(F)ccc3F)C2)c1 (centres undefined) | / | -2 | -5% | -13 | 3.0
O=C1C(Cl)=C(NS(=O)(=O)c2ccc([N+](=O)[O-])cc2)C(=O)c2ccccc21 | / | / | -12% | 0 | 73*
CCSc1nnc(NC(=O)C2CCN(S(=O)(=O)c3ccccc3C(F)(F)F)CC2)s1 | -11 | 7 | 12% | -4 | 0.6
CCN(c1ccccc1)S(=O)(=O)c1ccc(Cl)c(NC(=O)CN2C(=O)NC3(CCCC3)C2=O)c1 | / | / | -10% | 1 | 1.9
O=C(NCc1ccco1)C1CC(c2c(Cl)cccc2Cl)=NO1 (centres undefined) | -18 | -7 | -7% | -6 | 3.8
Cc1cccc(/C=N/NC(=O)c2cc3c(s2)-c2ccccc2CC3)c1 | -11 | -7 | 21% | 92 | 0.6
CCCn1c2ccccc2c2cnn(CC(=O)N3CCOCC3)c(=O)c21 | / | / | / | -5 | -5.6
CC(C)(C)c1cc(C(=O)O)c(CN2CCCCC2)o1 | -22 | 5 | -4% | -2 | -1.9
COc1cccc(-c2nc(CS(=O)(=O)CC(=O)N3CCN(C4CCCCC4)CC3)c(C)o2)c1 | -38 | -5 | 1% | -4 | 1.2 | Arbovirus anti repeat=-6
O=C(Nc1ccc2c(c1)CCC2)C1CCN(c2c3c(nc4ncnn24)CCC3)CC1 | 7 | -23 | 5% | ? | 1.4
CC(C)c1ccc(C(=O)Nc2cccnc2)cc1 | / | / | / | 87 | -2.2
CC(Oc1ccc(-n2cnnn2)cc1)C(=O)O (centres undefined) | / | 5 | -2% | -7 | 0.5
CCOCCn1c(CN2CCN(CC)CC2)nc2c1c(=O)n(C)c(=O)n2C | -32 | 10 | / | 5 | -0.2 | Arbovirus anti repeat=0
CCc1cc2c(=O)n(CCCOC)c(SCC(=O)Nc3oc(C)c4c(C)n[nH]c(=O)c34)nc2s1 | / | / | / | -3 | -0.3
CCCNc1c(NS(=O)(=O)c2c(F)c(F)c(F)c(F)c2F)c(=O)oc2ccccc12 | / | / | / | ? | 2.4
COc1ccc2nc(C)cc(SCC(=O)NNC(=O)COc3cccc4ccccc34)c2c1 | -22 | 16 | 12% | 1 | -1.8
C#CCNC(=O)C1=C[C@H](C(C)(C)C)C[C@H](OCc2ccc(CO)cc2)O1 | / | -5 | -7% | 0 | 0.1
COc1cc(Cl)ccc1OCc1cc(C(=O)N2C[C@H]3CC[C@H]2C3)no1 | / | / | / | -6 | 2.3
O=C(CCn1cnnn1)Nc1ccc(Cl)c(Cl)c1 | / | -9 | -2% | 8 | 1.6
(cont.)
SMILES | YopH inh | Arbovirus anti | Mtb H37Rv | Mtb betalactam | RecA intein inh | others
CCOC(=O)C1=NN(c2ccc(C)cc2)C2(S1)SC(C(C)=O)=C(C)N2c1ccccc1 (centres undefined) | -28 | -11 | -8% | ? | -1.3
CCn1c(SCC(=O)NNC(=O)c2ccc(OC)cc2)nnc1-c1ccco1 | / | -2 | 3% | -10 | -2.0
C[N+]12CCCCC1C(COC(=O)c1ccc3c(c1)OCO3)CCC2 (centres undefined) | -10 | -22 | / | 1 | 0.7
O=c1c(Oc2ccccc2Br)c(C(F)(F)F)oc2c(CN3CCCC3)c(O)ccc12 | -34 | 0 | 2% | 5 | /
C/C(=N\NC(=O)c1ccccc1NC(=O)c1ccc(Cl)cc1)c1ccncc1 | / | -25 | -1% | 8 | -1.7
Cc1c(CC(=O)N[C@@H](C)C(=O)O)c(=O)oc2cc3oc4c(c3cc12)CCCC4 | / | / | / | -10 | -2.7
CCn1ncc(-c2cc(C(=O)O)no2)c1C | / | 6 | -3% | 2 | -4.6
O=C(Nc1cccs1)Nc1c(F)c(F)cc(F)c1F | -28 | 3 | 7% | -4 | -1.1
CN(CCc1cn[nH]c1)Cc1nc(Cc2ccccc2F)no1 | / | 4 | 4% | 2 | 1.6
COc1ccc(OC)c(C2=NS(=O)(=O)N(C)C(C(=O)Nc3cccc(C(C)=O)c3)=C2)c1 | / | / | / | 0 | 0.6
CC1C(=O)N2CCCc3cc(S(=O)(=O)Nc4ccccc4F)cc1c32 (centres undefined) | / | / | / | -7 | 2.0
CCS(=O)(=O)c1ccc2c(c1)N(S(=O)(=O)c1ccccc1)CC(C(=O)O)O2 (centres undefined) | -42 | 1 | -8% | 7 | /
Cc1ccc(CC2S/C(=C(/C#N)C(=O)N3CCOCC3)N(c3ccccc3)C2=O)cc1 (centres undefined) | -2 | 1 | -5% | 4 | 1.6
CCN(c1ccccc1)S(=O)(=O)c1ccc2[nH]c(=O)c(=O)[nH]c2c1 | / | / | / | -4 | 3.1
COc1ccc(Cn2ccnc2CO)cc1[N+](=O)[O-] | / | 2 | -2% | -2 | -9.3
O=C(Nc1cccc2ccccc12)C(=O)C1C(=O)Nc2ccccc21 (centres undefined) | / | / | -2% | 6 | -3.4
N#Cc1ccccc1NC(=O)CC1c2ccccc2Oc2ccccc21 | -11 | 10 | 1% | -4 | 3.3
COCCN1Cc2cccc(C(=O)N3CCN(c4cc(C)ccc4C)CC3)c2C1=O | -38 | 3 | 3% | -4 | 1.9
O=C(O)C1CSC2(CCN(Cc3ccccc3)CC2)N1 (centres undefined) | -6 | 4 | 0% | / | -5.8
Cc1c(Cl)cccc1Nc1nc(NCCO)c2ccccc2n1 | / | / | / | -5 | 5.9
Cc1ccc(S(=O)(=O)NCC(=O)OCC(=O)N(C)C2CCS(=O)(=O)C2)cc1 (centres undefined) | / | / | / | -4 | -0.4
O=C1N/C(=C/c2cccn2-c2ccccc2)C(=O)N1c1cccc(Cl)c1 | -11 | 5 | 4% | -9 | -19
CS(=O)(=O)N1CCCC(C(=O)NCCc2ccccc2)C1 (centres undefined) | -33 | -1 | -2% | -12 | 0.0
c1coc(CNCCCN2CCOCC2)c1 | -14 | -1 | 0% | / | -0.4
COCCN(C(=O)CCC(=O)Nc1nccs1)C(C(=O)NCCC(C)C)c1ccc(F)cc1 (centres undefined) | / | / | / | -5 | 2.5

Compounds shown so far that have bromine (two):
SMILES | YopH inh | Arbovirus anti | Mtb H37Rv | Mtb betalactam | RecA intein inh | others
CC(NC(=O)c1cc(Br)cs1)C1CCCO1 (centres undefined) | / | / | / | 3 | 4.3
O=c1c(Oc2ccccc2Br)c(C(F)(F)F)oc2c(CN3CCCC3)c(O)ccc12 | -34 | 0 | 2% | 5 | /

Additional compounds follow:
SMILES | YopH inh | Arbovirus anti | Mtb H37Rv | Mtb betalactam | RecA intein inh | others
COc1cc(CNC(=O)OCC(C)C)cc(OC)c1OC | -36 | 6 | -9% | -6 | -0.1 | Arbovirus anti repeat=1
COc1cccc(/C=N/N2CCN(c3ccc(Cl)cc3)CC2)c1OC | / | / | / | 3 | 0.0
CCOC(=O)Cc1csc(NC(=O)Nc2cccs2)n1 | / | / | / | -2 | 0.8
Cc1cc(C)n(-c2nc3ccccc3c(=O)n2OCCOc2ccccc2)n1 | -16 | 1 | -2% | -5 | 4.6
CC(=O)c1c(C)[nH]c(C(=O)OCc2cccc(C)c2)c1C | / | / | / | 1 | -1.5
Cc1ccccc1C(=O)NC1CC2CCC(C1)N2Cc1ccccc1 (centres undefined) | / | 2 | -10% | -8 | 0.2

Quoted at random: 3 records from the list.
SMILES | YopH inh | Arbovirus anti | Mtb H37Rv | Mtb betalactam | RecA intein inh | others
Cc1ccccc1C(=O)NC1CC2CCC(C1)N2Cc1ccccc1 (centres undefined) | / | 2 | -10% | -8 | 0.2
CC(=O)c1c(C)[nH]c(C(=O)OCc2cccc(C)c2)c1C | / | / | / | 1 | -1.5
COc1cccc(/C=N/N2CCN(c3ccc(Cl)cc3)CC2)c1OC | / | / | / | 3 | 0.0

Gathered by group: the compounds so far with a tert-butyl group (2)
SMILES | YopH inh | Arbovirus anti | Mtb H37Rv | Mtb betalactam | RecA intein inh | others
CC(C)(C)c1cc(C(=O)O)c(CN2CCCCC2)o1 | -22 | 5 | -4% | -2 | -1.9
C#CCNC(=O)C1=C[C@H](C(C)(C)C)C[C@H](OCc2ccc(CO)cc2)O1 | / | -5 | -7% | 0 | 0.1

Compound activity deposited in PubChem by several laboratories.
